2A Renilla: Primary qHTS Assay for Foot and Mouth Disease Virus Antivirals against NCGC Sytravon and CBC Compound Libraries: Renilla Luciferase Signal | 120,000 compounds, 0.32% hits | Potency, µM (highest dose often 57.5 µM), inactives show at the highest dose signal change, negative = less light | AID 1745857, 2022 | HEK cells with a luciferase reporter of 2A StopGo recoding; active means well fitted falling curve with a large enough effect; inconclusive means small, poorly fitted or top-dose-only effect; inactive means no such curve, though single readings can be large or run the other way; note: nearly all actives have a fitted effect of over 55% in size; overnight with compound
StopGo FLuc: Primary qHTS Assay for Foot and Mouth Disease Virus Antivirals against NCGC Sytravon and CBC Compound Libraries: Firefly Luciferase Signal; HEK cells with a luciferase reporter of 2A StopGo recoding; 120,000 compounds, 0.23% hits; Potency, µM (top dose mostly 57.5 µM), inactives show at the highest dose signal change, negative = less light; active = well fitted falling curve with a large enough effect; inconclusive = small, poorly fitted or top-dose-only effect; inactive = no such curve, though single readings can be large or run the other way; note: nearly all actives have a fitted effect of over 60% in size; overnight with compound
Numbers without * were called inactive; u = inconclusive; & = joins results of further samples; [ ] = remark or other dose. % is set by controls: 0 for no effect and ±100 for the full control effect; potency is the fitted concentration of half-maximal effect. A portion of the library; count on the stated rates, not on these rows.

smiles | 2A Renilla | StopGo FLuc
CCOc1ccc(S(=O)(=O)c2cn(C)c3ccccc3c2=O)cc1 | 45%[activator] | 13%
Cc1cccc(NC(=O)c2ccc3oc(=O)c(S(=O)(=O)c4ccc(F)cc4)cc3c2)c1C | -7% | -12%
CCc1ccc2oc(C(=O)Nc3ccc(C)c(Cl)c3)cc(=O)c2c1 | -2% | 3%
CC(C)Cn1nc(C(=O)Nc2ccc(Br)cc2F)c2ccccc2c1=O | -8% | -2%
COC(=O)c1ccccc1NC(=O)Cn1c(=O)n(CCC(=O)NCc2ccccc2OC)c(=O)c2ccccc21 | -13% | -17%
Cc1ccc2nc(Nc3ccccc3C)cc(C)c2c1 | -12% | -1%
C/C(=N\NC(=O)C1CC1)c1cccc(N)c1 | 7% | 70%[activator]
O=C(O)/C=C/c1cc(Br)c(OCc2ccccc2Cl)c(Br)c1 | 8% | 0%
CCOc1cc(C=O)cc(Cl)c1OC | 2% | -7%
Cc1cc(C)c2c(=O)cc(C(=O)Nc3sc4c(c3C(=O)NCC3CCCO3)CCCC4)oc2c1 (stereo unspecified) | -9% | -15%
COC(=O)[C@H](C(C)C)N1Cc2nnn(Cc3ccc(C)cc3)c2-c2cc(F)ccc2S1(=O)=O | 209%[activator] | -5%
COc1cc2ccccc2cc1C(=O)Nc1ccc(Cl)c(-c2nc3ccccc3o2)c1 | -14% | -8%
COc1ccc(C(C)=O)c(OCc2ccccc2C#N)c1 | -15%[1.06 µM] | 9%
CCCCCOc1cc(OCCCCC)c2c(-c3ccccc3)cc(=O)oc2c1 | -5% | -13%
O=C(Nc1cccc(NC(=O)C2CCCCC2)c1)C1CCCCC1 | 28% | -5%

Continuation:
smiles | 2A Renilla | StopGo FLuc
CCOc1ccc(-c2cc3nc(C4CCN(C(=O)OC(C)(C)C)CC4)c(C(=O)Nc4cccc(CC)c4)cn3n2)cc1 | -15% | -7%
O=C(c1cc2ccc3cccnc3c2[nH]1)N1CCN(c2ccc(Cl)cc2)CC1 | -25% | -5%
O=C1COc2ccc(-c3csc(Nc4ccc(F)cc4)n3)cc2N1 | 54%[activator] | 194%[activator]
Cc1ccc(NC(=O)Cn2nc3ccc(S(=O)(=O)C(C)(C)C)nn3c2=O)cc1C | -24% | -22%
CC(C)(C)C1CCC(OC(=O)c2c(F)cccc2Cl)CC1 (stereo unspecified) | 12% | 0%
CC1CCC[C@]2(CCc3cc4c5c(c(=O)oc4cc3O2)CCCC5)C1 (stereo partly specified) | 14% | 14%
NS(=O)(=O)Cc1noc2ccccc12 | -10% | -18%
C=CC[N+](C)(C)CC#Cc1ccccc1 | 3%[1.06 µM] | u
Cn1c(=O)c2c(ncn2CC(=O)N(C2CC2)C2CCS(=O)(=O)C2)n(C)c1=O (stereo unspecified) | -3% | -1%
COc1cc(OC)cc(-c2nc3nc(C)c(CCC(=O)Nc4ccccc4)c(C)n3n2)c1 | -15% | 0%
CN(Cc1ccccc1N1CCCCC1)C(=O)c1cccc(S(=O)(=O)N2CCCC2)c1 | 62%[activator] | -16%
CCn1cnc2c1c(=O)n(CC(=O)NCC1(c3ccccc3)CCCC1)c(=O)n2Cc1ccccc1 | -8% | 3%
N=C(N)SC12CC3CC(CC(C3)C1)C2 | 1% | -1%
CC(CNC(=O)c1nnc(C(=O)Nc2ccccc2)s1)c1ccccc1 (stereo unspecified) | 2% | 16%
COc1ccc(S(=O)(=O)NCCc2csc(-c3ccc(F)cc3)n2)cc1 | 45%[activator] | u

Whole records from above:
`COc1ccc(S(=O)(=O)NCCc2csc(-c3ccc(F)cc3)n2)cc1` in the list: 2A Renilla: 45%[activator]; StopGo FLuc: u
`COC(=O)[C@H](C(C)C)N1Cc2nnn(Cc3ccc(C)cc3)c2-c2cc(F)ccc2S1(=O)=O` in the list: 2A Renilla: 209%[activator]; StopGo FLuc: -5%

The list goes on:
smiles | 2A Renilla | StopGo FLuc
O=C(N1CCN(C/C=C/c2ccccc2)CC1)C(F)(F)F | -1% | 19%
CCc1nn2c(=O)cc(CNc3cccc(C(=O)NC4CC4)c3)nc2s1 | 19% | 0%
Clc1ccc(CSc2nc(NCCc3ccccc3)c3ccccc3n2)cc1 | -9% | -14%
O=S(=O)(NCc1ccc(N2CCOCC2)nc1)c1ccc(Cl)c(Cl)c1 | 4% | -8%
Cc1nn(C(=O)c2ccccc2F)c(C)c1S(=O)(=O)N1CCOCC1 | 5% | 7%
O=C1NC2CCCCN2C12CCN(CCCN1c3ccccc3CCc3ccc(Cl)cc31)CC2 (stereo unspecified) | -20% | -24%
CCN(CC)c1ccc(C(=O)NCc2ccc3c(c2)CCN3C(=O)c2ccc(F)cc2)cc1 | -10% | -18%
COC(=O)c1c(C)[nH]c(C(=O)CSc2nnc(C)s2)c1C | 48%[activator] | 163%[activator]
CN(C)C(CNC(=O)C1CC=CCC1)c1ccsc1 (stereo unspecified) | -2% | -1%
C=CCn1c(SCC(=O)OCc2ccccc2)nc2c1c(=O)n(C)c(=O)n2C | -9% | -2%
COc1ccc(OC)c2[nH]c(C(=O)N3CCC(c4nnc5ccccn45)CC3)cc12 | 0% | 1%
O=c1[nH]c2ccc(NCc3ccc(-c4ccc(F)cc4)o3)cc2[nH]1 | -12% | 30%[activator]
O=C(Cc1ccc(-c2ccccc2)cc1)NCCS(=O)(=O)N1CCN(c2ccc(F)cc2)CC1 | -6% | -8%
Cc1ccc2c(C)cc(SCC(=O)Nc3cccc(F)c3)nc2c1 | 6% | 8%
COc1cccc2cc(-c3nc4ccccc4[nH]3)c(=O)oc12 | 24% | 209%[activator]

Remaining list, next part:
smiles | 2A Renilla | StopGo FLuc
O=C(Cn1c(=O)oc2cc(S(=O)(=O)N3CCCCC3)ccc21)Nc1cccc(Cl)c1 | 34%[activator] | 0%
CCOC(=O)C(C)NC(=O)c1c2c(nc3ccccc13)C(=O)N(C1CCCCC1)C2 (stereo unspecified) | 4% | -29%
Cc1cc(C)cc(-n2nnnc2SCCCn2c(=O)c3c(ncn3C)n(C)c2=O)c1 | -11% | -2%
CCOC(=O)c1c(C)n(Cc2ccccc2)c2ccc(OC)cc12 | -3% | -2%
COc1ccc(NC(=O)c2oc3ccc(S(=O)(=O)N4CCCCC4)cc3c2C)cc1 | u | u
CN(Cc1ccc(F)cc1)S(=O)(=O)c1nnc(NC(=O)c2ccccc2Cl)s1 | 27% | -13%
CCCCCCCCCCCCc1ccc(-c2ccc(CCCCC)cn2)cc1 | -6% | 4%
Cc1cc(C)c(Cn2cnc3nc4c(cc3c2=O)CCCC4)c(C)c1 | 106%[activator] | 51%[activator]
COc1cccc(NC(=O)Cn2nnc(C(=O)NCc3cccs3)c2N)c1 | 0% | -13%
Cc1c(CCC(=O)N2CCOCC2)c(=O)oc2c(C)c(O)ccc12 | 11% | 78%[activator]
COc1cc(CNCc2ccco2)ccc1OCc1ccccc1C | 2% | 0%
C#CCN(CC(=O)C(C)(C)C)C(C)(C)C | 1% | 3%
Cc1ccc2c(CNC3CCC(C)CC3)c(C(=O)O)n(Cc3cccc(F)c3)c2c1 (stereo unspecified) | 14% | -16%
CC1CN(C(=O)Cn2cnc3c2c(=O)n(C)c(=O)n3C)CCO1 (stereo unspecified) | -13% | -4%
S=C(NCc1ccccc1)NC1CC1 | 7% | 0%

New compounds follow:
smiles | 2A Renilla | StopGo FLuc
CC(Sc1nnc(-c2cccs2)n1C1CC1)C(=O)N(C)Cc1ccccc1 (stereo unspecified) | 8% | 1%
O=C(NCCc1ccccc1)c1ccc(CS(=O)(=O)c2ccc(Br)cc2)o1 | 13% | -7%
COC(=O)c1ccc2oc(=O)c(S(=O)(=O)c3ccc(OC)cc3)cc2c1 | -3% | -6%
Cc1ccc(NCC(=O)N2CCN(S(C)(=O)=O)CC2)cc1F | -9% | 20%
COc1ccc(CNC(=O)CSc2cc(C)c3ccc(OC)cc3n2)cc1 | 16% | 7%
Cc1cc(C)c2oc(-c3cc(NC(=O)c4ccco4)ccc3O)nc2c1 | 2% | 18%
CC1CCCN(c2ncnc3c2nc2n3CCCCC2)C1 (stereo unspecified) | 5% | 279%[activator]
CCOc1cc2ccccc2cc1C(=O)N1CCN(CC(=O)Nc2ccccc2Cl)CC1 | -10% | -9%
N#C/C(=C/c1ccccc1OC(F)F)C(=O)Nc1ccccc1Cl | 66%[activator] | 11%
COc1ccc(N2CCN(C(=O)c3cnc(N4CCOCC4)c4ccccc34)CC2)cc1 | 32%[activator] | -15%
O=C1COc2ccc(-c3cc(-c4ccc(F)cc4)c4c(n3)-c3ccccc3OC4)cc2N1 | -2% | -4%
COC(=O)[C@H]1C[C@@]2(C)c3ccccc3N(S(=O)(=O)c3ccccc3)[C@H]2N1C(=O)CNC1CCCCC1 | 107%[activator] | -14%
COC(=O)c1ccc(C(=O)N(C)Cc2ccncc2)s1 | -2% | 0%
Cc1ccc(C)c(CNC(=O)c2ccc3c(c2)nc2n3CCC(C)C2)c1 (stereo unspecified) | 28% | 23%
O=C(NCCc1cccnc1)c1ccccc1Cl | -4% | 125%[activator]

Continued.
smiles | 2A Renilla | StopGo FLuc
Cc1ccc(C(=O)Nc2ccc3oc(-c4ccncc4)nc3c2)c(Cl)c1 | -3%&-1% | 24%&24%
O=C(Nc1ccc(CSc2ccccc2)cc1)c1ccc(F)cc1 | 2% | 18%
CCOC(=O)CSc1nc2c(c(=O)[nH]c(=O)n2C)n1CCC(C)C | -7% | -2%
Cc1ccc(-c2nnc(Nc3cccc(O)c3)c3ccccc23)cc1S(=O)(=O)NCC1CCCO1 (stereo unspecified) | -4% | 0%
Cc1cccc(NC(=S)NCC2(C)CC(NC(=S)Nc3cccc(C)c3)CC(C)(C)C2)c1 (stereo unspecified) | 158%[activator] | -16%
COc1ccc2[nH]c(=O)c(CN(C)C(=O)c3ccccc3F)cc2c1 | -1% | -6%
Cc1ccc(S(=O)(=O)N2CCN(CCNC(=O)c3cc(C)cc(C)c3)CC2)cc1 | 0% | 4%
COc1cn(CC(=O)Nc2ccc(C(N)=O)cc2)c(CSc2ccc(F)cc2)cc1=O | -9% | 0%
CC(C)OC(=O)c1cc(C(=O)OC(C)C)cc([N+](=O)[O-])c1 | -2%[114 µM] | -18%[115 µM]
COc1ccc(COc2ccccc2C#N)c(Br)c1OC | 25% | 245%[activator]
CCOC(=O)c1ccccc1NC(=O)Cn1nnc2sc3c(c2c1=O)CCCC3 | -6% | 4%
COc1cccc(C(=O)Nc2c(C(=O)NC(C)(C)C)oc3ccccc23)c1 | 15% | -5%
Cc1ccc(NS(=O)(=O)c2cc3[nH]c(=O)c(=O)[nH]c3cc2C)cc1Cl | 25% | 1%
Cc1ccccc1NC(=O)CSc1cccs1 | 28% | 24%
Cc1ccc2nc(-c3cccc(NC(=O)c4cc([N+](=O)[O-])ccc4N4CCOCC4)c3)oc2c1 | -4% | 31%[activator]

Remaining list, next part
smiles | 2A Renilla | StopGo FLuc
Cc1oc(-c2ccccc2F)nc1CS(=O)(=O)CC(=O)N1CCN(c2cccc(C(F)(F)F)c2)CC1 | u | u
COc1ccc(N(CC(=O)N2CCN(c3cccc(C)c3C)CC2)S(=O)(=O)c2c(C)noc2C)cc1 | 17% | 10%
Cc1ccc(S(=O)(=O)N2CCc3cc(C(=O)Nc4c(C)cccc4C(C)C)ccc32)cc1 | -13% | -22%
Cc1ccccc1NC(=O)Cn1c(=O)n(CCCCC(=O)NCc2ccccc2Cl)c(=O)c2ccccc21 | -17% | -24%
Cc1cc(C)c(Cn2c(C)c(CNCCCc3ccccc3)c(C(=O)O)c2C)c(C)c1 | 108%[activator] | -18%
Cc1cc(OCC(=O)N2CCCCC2CCN2CCCCCC2)ccc1Cl (stereo unspecified) | -2% | 3%
COc1ccc(-c2noc(-c3ccc(NCc4ccco4)c([N+](=O)[O-])c3)n2)cc1OC | 6% | 21%
CCC(=O)Nc1nnc(S(=O)(=O)N2c3ccccc3CC2C)s1 (stereo unspecified) | -3% | -10%
Cc1cc(NCCN(C)C)n2nc(C)c(-c3ccccc3)c2n1 | -18% | -4%
CCCCc1c2c(nn1-c1cc(Cl)ccc1OC)CCCC2=O | -23% | -17%
Cc1cc(NC(=O)N2CCN(C(=O)c3nsc4ccccc34)CC2)ccc1Br | -4% | -1%
COc1ccc(/C=C/C(=O)OCC(=O)c2cccs2)cc1 | -14%[1.06 µM] | 0%
C#CCN(Cc1ccc(F)cc1)C(=O)NCC1CCN(Cc2ccccc2)CC1 | 5% | -14%
COc1cccc(NC(=O)Nc2nnc(COc3ccc(Cl)c(C)c3)s2)c1 | -9% | -7%
O=C(OCc1cccc(Cl)c1)c1ccccc1F | -13%[1.06 µM] | 5%
Cc1nc2cc(NC(=O)c3nn(Cc4ccccc4)c(=O)c4ccccc34)ccc2o1 | 49%[activator] | 130%[activator]
Cc1nc(-c2ccc(C)c(N3CCN(C(=O)Nc4ccc(Br)cc4)CC3)c2)no1 | -1% | 9%
CC(C)C(=O)NC1CCC(c2ccccc2)CC1 (stereo unspecified) | 1% | 3%

Source: PubChem
